High-throughput results deposited in PubChem by ICCB-Longwood Screening Facility, Harvard Medical School.
S aureus helic: blocks Staphylococcus aureus DNA helicase | purified S. aureus helicase, fluorescence unwinding assay; about half of the hits fall short of the stated cut | inhibition, %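 (tested at about 80 µM)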 | hit rate 0.05% among 120,000 | AID 485395;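 active means both duplicates at 50% or more, or one of them with a favoured structure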;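 further: 0% = mean of negative control wells and 100% = mean of positive control wells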
MgrA DNA FP: alters Staphylococcus aureus MgrA binding to DNA; hit rate 0.13% among 84,000; inhibition, %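 (about 10 µg/mL by stock and volumes)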; fluorescence polarization; AID 602314;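 active means above 50% in either of two replicates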;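 further: 0% = protein plus DNA without compound and 100% = DNA alone without protein; higher means less MgrA bound to DNA so lower polarization; one replicate is shown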
Numbers without * were called inactive; x = no result given; & = joins results of further samples. Only part of the results is shown, so the mix of outcomes need not match the whole.

SMILES	S aureus helic	MgrA DNA FP
COc1ccc(CCNc2nc3c(c(C(F)(F)F)n2)CCCCC3)cc1OC	25	x
CCN1CCOC2(O)C=CC(=O)C=C12 (stereo not drawn)	14	x
CCOC(=O)c1ccc(NC(=O)c2sc(NC(=O)c3ccccc3F)c(C(=O)OCC)c2C)cc1	x	2.4
COc1ccccc1N1C(=O)CSC1=NC(=O)c1ccccc1	10	x
CCc1ccc(CN2CCN(Cc3ccc4c(c3)OCO4)CC2)cc1	9	-0.3
COC(=O)C1=C(NNc2ccccc2)CSC1	16	x
C=CCOc1ccc(/C=C2/SC(=Nc3ccccc3)NC2=O)cc1OCC	x	0.6
CC(C)(C)c1ccc(NC(=O)c2ccco2)c(N)c1	x	-5.5
N#C/C(=C/C1=Cc2ccccc2OC1)c1nc2ccccc2s1	-62	x
N#CC1=C(SCC(N)=O)NC2=C(C(=O)CCC2)C1c1cccc(Cl)c1Cl (stereo not drawn)	8	x
Cc1c(C(=O)N(Cc2ccccc2)Cc2cccnc2)cnn1-c1ccc(F)cc1	x	-0.8
O=C(c1cccc(S(=O)(=O)Nc2cccc(Cl)c2)c1)N1CCCCC1	9	-2.1
CC1=C(C(=O)Nc2ccc(Cl)cc2C(=O)NC2CCCC2)SCCO1	3	1.5
Nc1nnc(SCC(=O)Nc2nnc(C(F)(F)F)s2)s1	8	2.6
COc1ccc(CC(=O)OCc2nc3ccc(Cl)cc3n2CCO)cc1OC	-9	x
O=S1(=O)CCC(S(=O)(=O)N2CCOCC2)C1 (stereo not drawn)	9	-3.7
O=C(O)c1ccccc1N1C(=O)C2C3C=CC(C3)C2C1=O (stereo not drawn)	12	x
O=C(NC(=O)c1cccc(F)c1)Nc1nc(-c2ccccc2)cc(C(F)(F)F)n1	0	2.2
Cc1ccc(OCCN2C(=O)OC(C)(C)C2(C)O)cc1 (stereo not drawn)	6	x
CCCNC(=O)c1noc2c1CCc1ccccc1-2	0	1.3
CN(C)C(=O)COC(=O)c1ccccc1Nc1ccc(SC(F)F)cc1	-4	x
Cc1cc(C)n(C(=O)c2ccc(S(=O)(=O)N3CCCC3)cc2)n1	-16	x
O=C(Nc1ccc(NC(=O)c2ccccc2O)cc1)c1ccccc1	x	-1.8
O=C(CCc1ccccc1)Nc1ccc2sccc2c1	10	x
O=C(CNCCC1=CCCCC1)Nc1ccccc1N1CCCCC1	5	-5.2
NC(=O)CSc1ccc2nnc(-c3ccc(Cl)cc3)n2n1	7	x
COc1ccc(C2C(C(=O)Nc3ccccn3)c3ccccc3C(=O)N2C)cc1 (stereo not drawn)	19	x
Cc1nnc(SC(C(N)=O)C(N)=O)s1	5	x
CCOC(=O)C1=C(C)N=C2c3ccccc3C(=O)C2C1c1ccccc1 (stereo not drawn)	0	x
Cc1nn(-c2ccccc2)nc1C(=O)Oc1ccc(Cl)cc1	x	-0.1
Cc1cccc(C)c1NC1=NC2CS(=O)(=O)CC2S1 (stereo not drawn)	3	1.5
O=C(O)COCc1ccc(Br)cc1	x	-1.9
Cc1cc(C)n(C(=O)c2ccc(S(=O)(=O)N3CCCCCC3)cc2)n1	-8	0.7
N#Cc1ccc(OCC(=O)Nc2cccnc2Cl)cc1	-22	1.5
CN(C)C(=O)N1c2ccccc2Sc2ccccc21	-7	x
Cc1cc(C)n2nc(-c3ccccc3)c(Br)c2n1	x	-1.5
Cc1oc2ccc(O)c(CN3CCC(C)CC3)c2c1C(=O)Nc1cccc(C(F)(F)F)c1	20	x
c1ccc2c(c1)nnn2CNc1nonc1-c1ncon1	18	1.8
O=C(NCc1ccccc1Cl)c1ccc2nc(N3CCOCC3)sc2c1	-1	-0.5
FC(F)(F)c1cccc(CSc2ncnc3c2oc2ccccc23)c1	7	x

Structural class: the entries above with two or more sulfur atoms.
SMILES	S aureus helic	MgrA DNA FP
Nc1nnc(SCC(=O)Nc2nnc(C(F)(F)F)s2)s1	8	2.6
O=S1(=O)CCC(S(=O)(=O)N2CCOCC2)C1 (stereo not drawn)	9	-3.7
Cc1nnc(SC(C(N)=O)C(N)=O)s1	5	x
Cc1cccc(C)c1NC1=NC2CS(=O)(=O)CC2S1 (stereo not drawn)	3	1.5

(cont.)
SMILES	S aureus helic	MgrA DNA FP
Cc1no[n+]([O-])c1COc1ccccc1/C=C1\NC(=S)NC1=O	-7	x
N#CC1=C(N)Oc2ccc3ccccc3c2C1c1ccccc1 (stereo not drawn)	-12	1.0
O=C(Nc1cccc(F)c1)NC1(C(=O)NCC2CCCO2)CCCCC1 (stereo not drawn)	6	-2.5
O=C(O)CCc1nc2cc(Cl)ccc2oc1=O	13	-2.5
CCn1c(SCc2nc(-c3ccccc3)no2)nc2ccccc21	4	x
O=C(c1cn(-c2ccccc2)nc1-c1cccnc1)N1CCCCC1	3	0.3
CC(C)(C)N1CNC(=S)NC1	x	-3.1
COC(=O)c1ccc(COC(=O)Cc2coc3cc4c(cc23)CCC4)o1	-15	x
COC(=O)NCCc1ccc(OC)cc1	14	x
CCOc1ccc(NC(=O)C2CC(=O)N(CCCN3CC(C(=O)Nc4ccc(OCC)cc4)CC3=O)C2)cc1 (stereo not drawn)	-7	x
COc1ccc2[nH]c3c(c2c1)CC(C)NC3=O (stereo not drawn)	-5	-0.6
COc1ccc(S(=O)(=O)N(CCC#N)Cc2ccccc2)cc1OC	x	-1.3
COc1ccc(C(=O)COC(=O)Cn2c(C)csc2=O)c(OC)c1	21	x
O=C(OCc1ccccc1Cl)c1ccco1	18	0.4
FC(F)(F)c1cc(-c2cccs2)n(-c2ccccc2)n1	x	0.6
CCOc1ccc(Nc2nc(C3(C)CC4(CC(C)(C)OC4=O)C(=O)O3)cs2)cc1 (stereo not drawn)	0	0.8
CCc1ccc(C2C(C(=O)c3ccco3)=C(O)C(=O)N2CC2CCCO2)cc1 (stereo not drawn)	3	-1.8
S=C(NCCN1CCOCC1)NCc1ccco1	15	-5.1
Cc1cc2n(n1)CCCN2CC(=O)NCCc1ccc(S(N)(=O)=O)cc1	-5	x
CC(C)C(=O)Nc1nc(-c2ccccc2)cs1	3	-0.9
CC(=Nc1ccccc1)C1=C(O)CSC1=O	0&-8	-0.9
Cc1ccc(S(=O)(=O)N2C3C=CC(C3)C2C(=O)O)cc1 (stereo not drawn)	-14	-0.4
COc1cccc(NC(=O)CCn2nc(-c3ccccc3OC)c3c(C)cc(C)nc32)c1	10	0.0
CN(Cc1ccccc1)C(=O)Cn1cc(Br)ccc1=O	-14	x
CC1=C(C(=O)Nc2ccc(C)cc2)C2(CCCCCC2)OC1=O	-17	x
COc1ccc(CC(=O)N2CCc3ccccc32)cc1	17	-1.3
CCn1c(C(C)C)n[nH]c1=S	8	2.1
O=C(Cn1cnc2ccccc2c1=O)Nc1ccc(S(=O)(=O)Nc2nccs2)cc1	17	0.2
CC(=O)Nc1ccc(C2=NNC(=NC(C)C)SC2)cc1	-11	x
Cc1nn(-c2ccc(F)cc2)c(-n2cccc2)c1C(=O)N(C)Cc1ccccc1	7	x
CCNC(=O)c1ccc2c(c1)sc1nc(-c3ccc(CC)cc3)cn12	13	x
Fc1ccc(-c2noc(COc3ncnc4ccccc34)n2)cc1	-18	x
COc1cccc(C(=O)NCCN2CCOCC2)c1	7	3.1
O=C(CSCc1cccc2ccccc12)NNC(=O)c1ccc(F)cc1	x	-7.9
CCN(CC)CC(O)COc1ccc(OCc2ccccc2)cc1 (stereo not drawn)	7	x
Cn1c(C(O)c2ccccc2)nc2ccccc21 (stereo not drawn)	-2	0.2
N#Cc1ccccc1S(=O)(=O)NCC(=O)NC1CCCc2ccccc21 (stereo not drawn)	6	x
C#CCN=Cc1c(O)n(CC)c(=S)n(CC)c1=O	-12	x
CC(C)CCN1NC2(CCCCC2)NC1=S	-6	-1.6
CCc1oc(C(=O)O)cc1CN	5	0.9

The final four records of the part above come first, to join the parts:
SMILES	S aureus helic	MgrA DNA FP
N#Cc1ccccc1S(=O)(=O)NCC(=O)NC1CCCc2ccccc21 (stereo not drawn)	6	x
C#CCN=Cc1c(O)n(CC)c(=S)n(CC)c1=O	-12	x
CC(C)CCN1NC2(CCCCC2)NC1=S	-6	-1.6
CCc1oc(C(=O)O)cc1CN	5	0.9
CC1(C)Cc2c(sc3nc(N4N=N4)nc(NCCO)c23)CO1	-21	12
CC(C)Sc1nc2ccccc2n1CC(=O)N1c2ccccc2CC1C (stereo not drawn)	-3	x
Nc1c(C(=O)C2CC2)oc2ccc(Br)cc12	x	-2.4
FC(F)(F)c1cccc(OCCCn2cncn2)c1	12	-1.9
COC(=O)c1ccc(C(=O)O)nc1	x	-3.2
O=C(O)COc1cc(O)c2c(=O)c(-c3ccc4c(c3)OCCO4)coc2c1	-2	x
S=C(Nc1ccccc1)N1CCOCC1	8	-0.2
Cn1c(NN)nc2ccccc2c1=O	7	1.1
CCOc1ccccc1NC(=O)Oc1ccc(F)cc1Cl	x	-1.0
COC(CN(C)S(=O)(=O)c1ccc(N2CCCCS2(=O)=O)cc1)OC	0	x

Structures from the list above that have a CF3 group, in the order listed:
SMILES	S aureus helic	MgrA DNA FP
COc1ccc(CCNc2nc3c(c(C(F)(F)F)n2)CCCCC3)cc1OC	25	x
Nc1nnc(SCC(=O)Nc2nnc(C(F)(F)F)s2)s1	8	2.6
O=C(NC(=O)c1cccc(F)c1)Nc1nc(-c2ccccc2)cc(C(F)(F)F)n1	0	2.2
Cc1oc2ccc(O)c(CN3CCC(C)CC3)c2c1C(=O)Nc1cccc(C(F)(F)F)c1	20	x
FC(F)(F)c1cccc(CSc2ncnc3c2oc2ccccc23)c1	7	x
FC(F)(F)c1cc(-c2cccs2)n(-c2ccccc2)n1	x	0.6
FC(F)(F)c1cccc(OCCCn2cncn2)c1	12	-1.9

Next section
SMILES	S aureus helic	MgrA DNA FP
O=C(O)C1C2C=CC(C2)C1C(=O)NCCN1CCOCC1 (stereo not drawn)	-5	1.5
CC(=O)N(c1ccccc1)c1nc(C)cc(C)c1C#N	-5	-1.1
NC(=O)C1CCN(C(=O)c2cccc(Cl)c2)CC1	-2	1.3
Cc1ccc(C2=CSC3=C(C(=O)c4ccc(S(=O)(=O)N(C)C)cc4)CCN23)cc1	-62	x
CCCCn1c(-c2cc3c(s2)CCC3)nc2cc(S(N)(=O)=O)ccc21	-2	x
Cc1ccccc1OCCN1C(=O)NC(CC(C)C)C1=O (stereo not drawn)	-10	x
O=C1/C(=C\c2cccs2)SC(=S)N1CCC(=O)N1c2ccccc2Sc2ccccc21	x	-1.1
CCn1c(NCc2cccs2)nc2ccccc21	-21	-2.2
O=C1CCC(=O)N1OCC(=O)N(c1ccccc1)c1ccccc1	16	0.3
Cc1ccccc1Nc1nc(N)nc(CSc2nc3scc(-c4cccs4)c3c(=O)[nH]2)n1	-5	x
CC(C)n1c(-c2ccncc2)n[nH]c1=S	7	1.4
CCOC(=O)c1cc2c(ccn2C)n1CC(=O)N1CCCC(C)C1 (stereo not drawn)	15	-14
Cc1[nH]c(=O)[nH]c(=O)c1NCCO	9	x
CS(=O)(=O)c1ccc(Cl)cc1	x	-2.0
CSC(SC)=C(C#N)C#N	x	-1.9
O=C(CSC1=NCCS1)Nc1cc(Cl)ccc1N1CCOCC1	11	-2.2
N#CSC1CC(=O)N(c2ccc(F)cc2)C1=O (stereo not drawn)	2	-3.2
c1ccc(NC2=Nc3ccccc3CS2)cc1	8	-1.4
CC(C)c1cccc(C(C)C)c1NC(=O)C(C)(C)C	3	-1.8
CN(C)c1ccc(NC(=O)C2CC3CCCC(C2)C3=O)cc1 (stereo not drawn)	2	x

Reprinted from the part before: 3 entries, then new ones.
SMILES	S aureus helic	MgrA DNA FP
c1ccc(NC2=Nc3ccccc3CS2)cc1	8	-1.4
CC(C)c1cccc(C(C)C)c1NC(=O)C(C)(C)C	3	-1.8
CN(C)c1ccc(NC(=O)C2CC3CCCC(C2)C3=O)cc1 (stereo not drawn)	2	x
NCc1ccc2cc[nH]c(=O)c2c1	6	-1.0
O=C1NCCCCC1NS(=O)(=O)c1cccc(C(F)(F)F)c1 (stereo not drawn)	4	x
N#Cc1nc(-c2ccccc2F)oc1NCCN1CCOCC1	26	x
COC(CNC(=S)c1ccc(NC(C)=O)cc1)OC	-4	x
CC(C)=CC(=O)Nc1cc(Cl)ccc1C	1	-0.1
Cn1c(=S)[nH]c2ccccc2c1=O	-16	x
CCOc1ccc2c3c(c(=O)oc2c1C)CCC3	8	3.0
COc1ccc(S(=O)(=O)N(C)Cc2ccccc2)cc1OC	-26	x
Cc1nc(-c2ccc(C(=O)O)cc2)cs1	-13	-0.4
CSc1cc(C(F)(F)F)c(C(=O)Nc2c(C)cccc2C)cn1	x	0.0
CCc1nc2ccc(C(=O)NCCc3cnc[nH]3)cc2nc1CC	-15	x
Cc1noc(C)c1COC(=O)c1cc2c3ccccc3n(C)c2s1	-11	x
O=C(O)c1cc(C(=O)O)cc(-c2ccc(C=Nc3ccc4[nH]c(=O)[nH]c4c3)o2)c1	12	3.2
Cc1ccc2c(c1)c1c(n2C)C(C#N)CCC1 (stereo not drawn)	4	1.2
CN1C(=O)C(C(=O)Nc2ccccc2)C2CC1(C)Oc1ccccc12 (stereo not drawn)	12	x
O=C1CC(NC2CCN(c3ncccn3)CC2)C(=O)N1c1ccc(F)cc1 (stereo not drawn)	4	-0.8
CCc1cc2cc3c(cc2nc1SCC(=O)N1CCCCC1)OCO3	-6	2.0
CNCc1cc2ccccc2s1	-1	-2.5
Cc1cc(C2=Nn3cc(-c4ccccc4)nc3SC2)c(C)n1CC1CCCO1 (stereo not drawn)	9	x
Cc1sc2ncnc(SCC(N)=O)c2c1C	-6	1.5
O=C(O)CN1C(=O)/C(=C\c2ccc(-c3ccc(Cl)c([N+](=O)[O-])c3)o2)SC1=S	x	0.4
COC(=O)CC1=CC(C)(CC(=O)OC)C(C#N)(C#N)C(N)=C1C#N (stereo not drawn)	1	-0.2
CC1=NN(c2ccccc2)C(=O)/C1=C/c1cn(CC(O)CN2CCOCC2)c2ccccc12 (stereo not drawn)	35	x
COc1ccc(C(=O)O/N=C(\N)c2ccccc2)cc1	25	x
